FGF22 binding = shifts melting point of recombinant human FGF22. actives 1.5% (n = 340,000). AID 651658. calls only at 9.99 µM. recombinant FGF22 thermal shift, SYPRO orange fluorescence; percent of sucrose octasulfate shift, DMSO zero;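 active = melting point raised past a set limit in the mean and every replicate; inconclusive = no clear call; three in four hits are not shown here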
Target sequence (Q9HCT0 whole entry, looked up): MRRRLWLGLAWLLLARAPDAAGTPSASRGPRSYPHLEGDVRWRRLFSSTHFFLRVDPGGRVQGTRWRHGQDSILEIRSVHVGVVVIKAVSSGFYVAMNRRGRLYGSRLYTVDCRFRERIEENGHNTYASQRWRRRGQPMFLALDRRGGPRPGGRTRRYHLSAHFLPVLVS
ALR H2O2 inh = inhibitors of human sulfhydryl oxidase ALR; P55789; purified ALR, DTT oxidation, H2O2 HRP-luminol luminescence; inhibition, % (concentration not given with the values); actives 3.8% (n = 290,000); AID 485317;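 active = mean and each replicate at 75% or more; inconclusive = only one of the two met; inactive = neither met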;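 also: stock transfer was 7.5 nL into about 7.5 µL; 0% = neutral wells and 100% = wells with inactivated enzyme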
Target sequence (P55789 whole entry, looked up): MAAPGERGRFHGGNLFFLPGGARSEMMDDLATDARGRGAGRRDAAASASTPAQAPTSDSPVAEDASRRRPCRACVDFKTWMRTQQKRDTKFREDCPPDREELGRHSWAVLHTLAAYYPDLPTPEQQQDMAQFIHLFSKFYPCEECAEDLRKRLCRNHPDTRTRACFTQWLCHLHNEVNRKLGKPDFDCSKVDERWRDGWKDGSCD
Beta apoptosis = beta cell apoptosis inhibition | INS-1E cytokine-induced death, ATP luminescence, 48 h; percent of positive-control rescue, neutral wells zero | protection from apoptosis, % (no concentration beside the values) | actives 0.8% (n = 300,000);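 active = all replicates at 75% or more, or half of them and the mean; inconclusive = half reach 75% but not the mean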;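 also: 0% = cytokine-treated negative control wells and 100% = positive control rescue; higher means more ATP so stronger rescue from cytokine killing; wells of about 40 µL received 100 nL stock; the first replicate is given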
Ecoli rRNA inh = inhibits bacterial ribosomal RNA function over humanized ribosomes | E. coli WT GFP vs humanized-ribosome RFP mutants, fluorescence, 24 h; active compounds read low; DMSO median 0, no signal -100 | GFP signal change (wild-type ribosome), % (test concentration not listed) | actives 1.6% (n = 350,000) | AID 720706;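 active = significant combined selectivity score with lowered wild-type GFP, culture density cut under 30%, mutant RFP and density less affected; inactive = any of these conditions unmet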; also: one replicate is shown; some compounds called inactive have numbers as strong as hits
MLL AF4-AF9 inh = inhibitors of human MLL-AF4/AF9 interaction; AlphaScreen, biotin-AF4 peptide binding to FLAG-AF9; AID 651704; P42568; inhibition, % at 10 µM; actives 0.47% (n = 350,000);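 active = every replicate reaching a set inhibition limit, whatever the replicate mean, cut at about 25% in these data; inconclusive = mean inhibition reaches that limit but some replicates miss it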;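 also: 0% = plate neutral control median and 100% = total signal loss; the record names both 10 and 1 µM as test concentration; the first replicate is given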
Target sequence (P42568 whole entry, looked up): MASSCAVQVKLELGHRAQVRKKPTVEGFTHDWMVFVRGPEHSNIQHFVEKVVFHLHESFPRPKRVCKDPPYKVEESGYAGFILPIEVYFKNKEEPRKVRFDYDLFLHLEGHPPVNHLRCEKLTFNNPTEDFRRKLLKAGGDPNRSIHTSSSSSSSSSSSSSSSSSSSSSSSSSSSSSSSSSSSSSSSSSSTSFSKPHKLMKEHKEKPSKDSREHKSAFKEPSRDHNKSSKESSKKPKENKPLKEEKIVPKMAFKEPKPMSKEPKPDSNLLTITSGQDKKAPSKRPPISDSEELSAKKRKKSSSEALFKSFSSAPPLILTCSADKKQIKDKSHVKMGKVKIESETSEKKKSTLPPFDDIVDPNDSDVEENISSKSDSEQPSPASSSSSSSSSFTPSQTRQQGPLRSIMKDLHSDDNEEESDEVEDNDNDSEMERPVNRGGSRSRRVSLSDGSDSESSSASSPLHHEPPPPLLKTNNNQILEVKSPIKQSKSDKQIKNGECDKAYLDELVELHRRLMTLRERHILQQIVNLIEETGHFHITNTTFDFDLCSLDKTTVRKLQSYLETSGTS
T cruzi repl = blocks replication of Trypanosoma cruzi; T. cruzi beta-gal in NIH3T3, luminescence, 90 h; inhibition, % (concentration not given with the values); actives 1.4% (n = 300,000);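 active = mean inhibition across valid replicates above about 55%, limit read from the data; inconclusive = mean below that limit but half or more replicates reach it; inactive = mean below it, under half of replicates reach it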;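 also: signal also drops with host cell toxicity which is not excluded here; 0% = plate median of DMSO wells and 100% = zero luminescence signal; higher percent means less beta-gal luminescence so fewer parasites; stock transfer was 50 nL into about 50 µL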
Calb FLC = C. albicans growth modulation with fluconazole; growth inhibition, % (test concentration not listed); actives 0.57% (n = 300,000); C. albicans CaCi-2 (fluconazole-resistant clinical isolate) + fluconazole, Alamar Blue growth, 48 h; AID 1979;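 active = most replicates above 75%; inconclusive = exactly half above 75%; inactive = most below 75%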;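 also: all wells also contain fluconazole at 8 µg/ml as a sub-toxic cotreatment; 0% = median of DMSO wells and 100% = median of geldanamycin control wells; wells of about 8 µL received 7.5 nL stock; the first replicate is given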
RanGTP-Impb inh = disruptors of Ran-importin-beta complex formation – biochemical, FRET, CFP-Ran, YFP-importin-beta, homogeneous, primary screen | actives 1.1% (n = 300,000) | AID 2216 | inhibition, % (test concentration not listed) | cell-free CFP-Ran/YFP-importin-beta FRET ratio;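 active = most replicates above 15%; inconclusive = exactly half above 15%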;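 also: 0% = DMSO wells and 100% = Ran loaded with GDP instead of GTP; wells of about 40 µL received 100 nL stock; the first replicate is given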
Ecoli rRNA inh OD600 = recorded beside Ecoli rRNA inh, whose call it bears; OD600 change, %; measured here: OD600 growth;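 optical density of the mix in the first replicate; 0 = DMSO median and -100 = no signal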
Ecoli rRNA inh RFP = second read-out of Ecoli rRNA inh, no call of its own (marks repeat the call); RFP signal change, %; measured here: RFP humanized mutant strains;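 first replicate; 0 = DMSO median and -100 = no signal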
* = called active by the depositor; i = inactive; ? = inconclusive; . = not tested or not shown. A portion of the library; rates above refer to the full screens.

SMILES	FGF22 binding	ALR H2O2 inh	Beta apoptosis	Ecoli rRNA inh	Ecoli rRNA inh OD600	Ecoli rRNA inh RFP	MLL AF4-AF9 inh	T cruzi repl	Calb FLC	RanGTP-Impb inh
Cc1ccc(-c2cc(C(=O)Nc3c(C)n(C)n(-c4ccccc4)c3=O)no2)cc1	i	0	-8	1	1	0.0	-2.5	3	-5	-1.6
NC(N)=Nc1ccc(N=C(N)N)cc1	i	-2	-7	18	15	0.5	1.6	-9	2	-6.1
CCn1cc(C(=O)N[C@@H](C)C(=O)NCCCn2ccnc2)c(=O)c2cc3c(cc21)OCO3	i	-1	-12	-12	15	0.5	-2.1	-8	-5	-0.2
COc1ccc(OC)c(NC(=O)CCNC(=O)c2ccco2)c1	i	-21	0	2	4	1.9	-6.6	-5	15	1.5
O=C(CN(c1cccc(Br)c1)S(=O)(=O)c1ccccc1)N/N=C/c1cc([N+](=O)[O-])ccc1O	i	-2	.	-2	9	3.6	8.7	-18	3	3.9
Cc1ccc(NC(=O)C2CCN(C(=O)NCc3ccccc3)CC2)cc1C	i	0	-3	1	13	0.6	-0.4	-2	-6	-3.3
CCOc1ccc(S(=O)(=O)N2CCC(C(=O)NCCc3ccccc3)CC2)cc1	i	0	-3	1	3	-1.4	-1.0	-6	1	0.6
COc1ccc(-c2oc(=O)c3cc(OC)c(OC)cc3c2C#CC2(O)CCCCC2)cc1	i	-1	-6	11	23	-5.8	-2.1	.	.	.
COc1cccc(C(=O)CC(=O)C(=O)Nc2cc(Cl)c(OC)cc2OC)c1	i	-8	5	-3	-4	-6.5	8.3	-13	0	3.3
CC1CCc2c(sc3nc(CN4CCN(S(=O)(=O)c5ccccc5[N+](=O)[O-])CC4)[nH]c(=O)c23)C1 (stereo not given)	.	-2	1	.	.	.	.	7	-17	-4.8
CC(C)Sc1sc(C(=O)O)c(-c2ccc(Cl)cc2)c1C#N	i	58	-1	-43*	-14*	-12*	-1.2	-21	-6	0.1
O=C(/C=C/c1ccccc1[N+](=O)[O-])OCC(=O)c1ccccc1	i	1	-7	-22*	-6.6*	0.3*	1.4	-13	6	-1.5
CC(C)(C)S(=O)(=O)c1ccccc1-c1noc(-c2ccccc2)c1C(N)=O	i	-3	-1	-9	-13	-0.8	-2.1	-8	-4	1.8
Cc1cc(C)n2nc(SCC(=O)Nc3ccc(O)cc3)nc2n1	i	99*	-18	5	7	0.2	-9.8	5	?	6.2
Cc1ccccc1Cn1ccc(NC(=O)c2onc(C)c2Cl)n1	i	0	-8	-8	-11	-0.4	-6.4	-23	0	-3.2
CC(C)(C)c1ccc(C(=O)Cn2cnnc2C#N)cc1	i	-3	-6	-1	-9	1.1	0.6	1	-11	-1.7
CCC(C)Sc1nnc(Cc2cc(=O)[nH]c(=O)[nH]2)n1-c1ccc(OC)cc1 (stereo not given)	i	-175	-5	3	15	6.1	5.5	-1	-2	-3.4
COc1cccc(NC(=O)CN(C)C(=O)c2ccc3ccccc3c2)c1	.	0	.	.	.	.	.	-4	-15	4.6
O=C(Oc1cncc(Cl)c1)c1ccco1	.	-13	-3	.	.	.	.	-2	-2	0.3
O=S(=O)(Nc1ccc(N2CCOCC2)cc1)c1ccc(F)cc1	i	?	-6	4	7	-2.2	0.4	7	13	-0.4
O=C(COC(=O)CCc1nc2ccccc2s1)NC(=O)NCc1ccco1	i	33	-12	-9	-6	2.6	-2.4	-9	-3	?
CCOc1ccc(C(c2c(C)n(C)n(-c3ccccc3)c2=O)c2c(C)n(C)n(-c3ccccc3)c2=O)c(O)c1	i	37	0	.	.	.	0.0	-26	2	-3.6
COC(=O)c1c(NC(=O)c2ccc(C)cc2)csc1C	i	1	.	5	12	-0.5	-4.5	-6	4	-1.3
CCc1ccc(OCC(=O)NC(NC(=S)Nc2ccc(Cl)cc2)C(Cl)(Cl)Cl)cc1 (stereo not given)	i	-1	23	-22	-22	-6.8	1.3	54	-1	0.7
O=C(O)c1ccc(CNCc2cccc(OCc3ccc(F)cc3)c2)cc1	i	-7	-4	7	4	2.6	-3.4	-8	4	-5.7

Reprinted from the part before: 5 entries, then new ones.
SMILES	FGF22 binding	ALR H2O2 inh	Beta apoptosis	Ecoli rRNA inh	Ecoli rRNA inh OD600	Ecoli rRNA inh RFP	MLL AF4-AF9 inh	T cruzi repl	Calb FLC	RanGTP-Impb inh
O=C(COC(=O)CCc1nc2ccccc2s1)NC(=O)NCc1ccco1	i	33	-12	-9	-6	2.6	-2.4	-9	-3	?
CCOc1ccc(C(c2c(C)n(C)n(-c3ccccc3)c2=O)c2c(C)n(C)n(-c3ccccc3)c2=O)c(O)c1	i	37	0	.	.	.	0.0	-26	2	-3.6
COC(=O)c1c(NC(=O)c2ccc(C)cc2)csc1C	i	1	.	5	12	-0.5	-4.5	-6	4	-1.3
CCc1ccc(OCC(=O)NC(NC(=S)Nc2ccc(Cl)cc2)C(Cl)(Cl)Cl)cc1 (stereo not given)	i	-1	23	-22	-22	-6.8	1.3	54	-1	0.7
O=C(O)c1ccc(CNCc2cccc(OCc3ccc(F)cc3)c2)cc1	i	-7	-4	7	4	2.6	-3.4	-8	4	-5.7
COC(=O)c1scc(C)c1NC(=O)c1cccc(C#N)c1	.	-3	-3	.	.	.	.	-12	-7	-2.6
Cc1ccc(/C=N/NC(=O)Cn2cnc3ccccc32)o1	.	-10	-5	.	.	.	.	-9	-6	4.3
Cc1ccc(C(=O)N2CCc3ccccc32)cc1NC(=O)c1ccco1	i	.	1	-7	-7	6.5	2.8	3	14	-0.5
COc1ccc(C(=O)N(Cc2ccco2)Cc2cc3cc(C)ccc3[nH]c2=O)cc1OC	.	-6	5	.	.	.	.	13	4	3.6
O=C(O)CS(=O)(=O)CC(=O)O	.	0	0	.	.	.	.	0	-1	13
CCN(C(=O)COc1ccc(F)cc1Br)c1c(N)n(Cc2ccccc2)c(=O)[nH]c1=O	i	.	0	11	16	1.4	-1.1	.	.	.
CC/C(CC(C)(C)c1ccccc1)=N\O	.	-21	1	.	.	.	.	8	4	3.5
CCOc1ccc(N(CC)C(=O)Cc2c(C(=O)O)n(C)c3ccccc23)cc1	i	-20	-1	3	8	5.9	-4.2	-6	13	1.0
Cc1cc2c3ccccc3ncn2n1	i	3	-4	14	17	-0.8	-2.9	-5	4	-1.2
CCOc1ccc(N(CC(=O)N2CCN(Cc3ccccc3)CC2)S(C)(=O)=O)cc1	i	-24	-2	2	-2	-4.5	-2.1	3	-4	1.3
O=C(CNC(=O)c1nc[nH]c1C(=O)NCC(=O)OCc1ccccc1)OCc1ccccc1	i	4	-3	6	8	-6.1	-15	-8	-9	0.2
COc1ccc([N+](=O)[O-])cc1NC(=O)/C=C/C(=O)O	i	-4	-7	3	8	2.9	-3.3	2	16	-0.1
O=C(CSc1nnnn1Cc1ccccc1)NCCc1ccccc1	.	-26	-6	.	.	.	.	4	-2	2.9
O=C(O)/C=C/C(=O)Nc1ccc(Cc2ccc(NC(=O)/C=C/C(=O)O)cc2)cc1	i	99*	1	-8	5	5.7	-1.2	-3	-2	-0.6
Nc1nc(-c2ccc3ccccc3c2)c(C2(O)C(=O)Nc3c(Br)cc(F)cc32)s1 (stereo not given)	.	-18	-1	.	.	.	.	-12	?	-30
COc1ccc(N2CC(C(=O)Nc3nnc(SCC(=O)N4CCOCC4)s3)CC2=O)cc1 (stereo not given)	i	-5	-4	4	17	2.0	-3.1	-1	-6	-2.3
Cc1ccc(C)c(N2CCN(C(=S)Nc3ccc4nc(N5CCN(C)CC5)cc(C)c4c3)CC2)c1	i	.	5	-7	5	22	2.6	51	58	0.5
CCCCOC(=O)N1CCOCCOCCOCC1	i	-3	-6	5	10	-0.1	-1.0	2	-2	1.7
Cc1ccc(S(=O)(=O)NCC(=O)OCc2nnc(-c3ccccc3)o2)cc1C	.	3	-9	.	.	.	.	-8	2	1.1
COc1ccc(-c2cc(CCCC(=O)NCCc3ccccc3)no2)cc1	.	9	4	-3	-3	2.9	-9.2	8	-2	?
Cc1cc(NS(=O)(=O)c2ccc(N3C(=O)C4C5C=CC(C5)C4C3=O)cc2)nc(C)n1 (stereo not given)	i	-20	-3	7	13	0.7	-0.1	-4	-17	0.3
COc1ccc(OCCSc2ncccn2)cc1	.	0	-3	.	.	.	.	-4	-2	3.3
COc1cccc(-c2cc(C(=O)NCCCn3ccnc3)c3ccccc3n2)c1	.	0	-6	.	.	.	.	-6	14	-6.2
CCc1cc[n+](/C(C(=S)Nc2cccc(C)c2)=C(/[O-])c2ccc(C)c([N+](=O)[O-])c2)cc1	i	.	-5	16	16	3.8	4.7	10	-21	0.5
O=C(NC1CC1)C1=C[C@@H](C2CC2)C[C@@H](OCc2ccc(CO)cc2)O1	i	-1	-3	-1	5	-6.5	-0.1	-10	0	?

More records
SMILES	FGF22 binding	ALR H2O2 inh	Beta apoptosis	Ecoli rRNA inh	Ecoli rRNA inh OD600	Ecoli rRNA inh RFP	MLL AF4-AF9 inh	T cruzi repl	Calb FLC	RanGTP-Impb inh
CC(=O)c1n[nH]nc1Nc1nc(C)cc(C)n1	.	1	-7	.	.	.	.	-9	30	0.6
COc1cccc(C(Nc2ccccn2)c2c(NC(=O)c3ccco3)sc(C)c2C)c1 (stereo not given)	i	-1	.	-1	4	4.6	-38	59*	-22	2.2
CCOC(=O)c1ccccc1NC(=O)CSc1nnnn1C	.	-1	0	.	.	.	.	7	8	1.5
CCOc1cccc(CN2CCCC(C(=O)Nc3cccc(-n4cccn4)c3)C2)c1 (stereo not given)	i	-7	-1	-9	-9	1.2	1.3	46	4	1.7
Cc1cccn2c(=O)c3cc(C(=O)NCc4cccnc4)c(=N)n(CC4CCCO4)c3nc12 (stereo not given)	i	.	8	17	7	-3.9	1.2	10	-9	180*
CCN(CC)S(=O)(=O)c1ccc(N2CCOCC2)c(NC(=O)c2cccc(C#N)c2)c1	.	-1	8	2	3	0.3	-1.3	39	-2	-3.3

Reprinted at random: 3 records from the list.
SMILES	FGF22 binding	ALR H2O2 inh	Beta apoptosis	Ecoli rRNA inh	Ecoli rRNA inh OD600	Ecoli rRNA inh RFP	MLL AF4-AF9 inh	T cruzi repl	Calb FLC	RanGTP-Impb inh
Cc1cccn2c(=O)c3cc(C(=O)NCc4cccnc4)c(=N)n(CC4CCCO4)c3nc12 (stereo not given)	i	.	8	17	7	-3.9	1.2	10	-9	180*
CCOc1cccc(CN2CCCC(C(=O)Nc3cccc(-n4cccn4)c3)C2)c1 (stereo not given)	i	-7	-1	-9	-9	1.2	1.3	46	4	1.7
CCN(CC)S(=O)(=O)c1ccc(N2CCOCC2)c(NC(=O)c2cccc(C#N)c2)c1	.	-1	8	2	3	0.3	-1.3	39	-2	-3.3

Screens deposited in PubChem BioAssay by Broad Institute.
